# Calb FLC – affects C. albicans growth with fluconazole; C. albicans CaCi-2 (fluconazole-resistant clinical isolate) + fluconazole, Alamar Blue growth, 48 h; growth inhibition, % (no concentration beside the values); 300,000 tested, 0.57% active; AID 1979;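 active = most replicates above 75%; inconclusive = exactly half above 75%; inactive = most below 75%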;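 also: all wells also contain fluconazole at 8 µg/ml as a sub-toxic cotreatment; 0% = median of DMSO wells and 100% = median of geldanamycin control wells; wells of about 8 µL received 7.5 nL stock; the first replicate is given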
# Bfl-1 A1 inh – inhibitors of the anti-apoptotic protein A1, read as caspase activation; caspase activation, % (concentration not given with the values); MEF A1-2A-BIM cells, Caspase-Glo 3/7 luminescence, 3 h; percent of clofoctol response, vehicle zero; 330,000 tested, 0.066% active;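 active = over half of replicate activation scores above 10%, or exactly half above 10 with the replicate mean above 10; inconclusive = replicate mean below 10 yet half the replicates above 10; inactive = over half of replicates below 10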;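 also: wells of about 30 µL received 50 nL stock; many hits fall short of the cut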
# T cruzi inh – T. cruzi replication inhibition | T. cruzi beta-gal in NIH3T3, luminescence, 90 h | 300,000 tested, 1.4% active | inhibition, % (no concentration beside the values);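 active = mean inhibition across valid replicates above about 55%, limit read from the data; inconclusive = mean below that limit but half or more replicates reach it; inactive = mean below it, under half of replicates reach it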;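 also: signal also drops with host cell toxicity which is not excluded here; 0% = plate median of DMSO wells and 100% = zero luminescence signal; higher percent means less beta-gal luminescence so fewer parasites; stock transfer was 50 nL into about 50 µL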
# Beta cell apopt – beta cell apoptosis inhibition. protection from apoptosis, % (no concentration beside the values). INS-1E cytokine-induced death, ATP luminescence, 48 h; percent of positive-control rescue, neutral wells zero. AID 435005. 300,000 tested, 0.8% active;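 active = all replicates at 75% or more, or half of them and the mean; inconclusive = half reach 75% but not the mean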;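 also: 0% = cytokine-treated negative control wells and 100% = positive control rescue; higher means more ATP so stronger rescue from cytokine killing; wells of about 40 µL received 100 nL stock; the first replicate is given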
# UCH37 inh – inhibitors of human deubiquitinating enzyme UCH37. AID 588478. inhibition, % (test concentration not listed). Q9Y5K5. purified proteasome/UCH37, Ub-AMC cleavage fluorescence. 330,000 tested, 0.33% active;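 active = mean of two replicates above 20%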;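 also: 0% = compound-free wells with enzyme and 100% = wells lacking proteasome; stock transfer was 100 nL into about 20 µL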
#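 Reagent: Ub-AMC substrate; assay system: Proteasome-associated human UCH37 deubiquitinase; controls: no-proteasome and no-compound wells; read-out: % inhibition of Ub-AMC cleavage fluorescence; timing: 30 min preincubation with enzyme, 25 min cleavage at room temperature; signal: AMC fluorescence from Ub-AMC cleavage, excitation 355 nm, emission 460 nm; buffer or medium: Tris-HCl pH 7.4 plus ovalbumin, ATP-MgCl2, DTT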
# RanGTP-Imp inh – inhibitors of RanGTP-importin-beta interaction, primary screen, biochemical, FRET, CFP-Ran, YFP-importin-beta, homogeneous | cell-free CFP-Ran/YFP-importin-beta FRET ratio | 300,000 tested, 1.1% active | AID 2216 | inhibition, % (concentration not given with the values);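 active = most replicates above 15%; inconclusive = exactly half above 15%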;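 also: 0% = DMSO wells and 100% = Ran loaded with GDP instead of GTP; wells of about 40 µL received 100 nL stock; the first replicate is given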
# LANA-H2B inh – blocks KSHV LANA binding to histone H2A/H2B; Q9QR71; cell-free LANA-H2A/H2B peptide, fluorescence polarization; inhibition, % (no concentration beside the values); 320,000 tested, 0.6% active; AID 2629; in the data active = inhibition mostly above about 10%, no sharp cut-off; inactive = mostly below about 6.7%;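 also: stock transfer was 7.5 nL into about 10 µL; 0% = median of vehicle wells and 100% = median of positive control wells; one replicate is shown; the record names a cut of 25% in any replicate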
# Target sequence (Q9QR71 whole entry, looked up): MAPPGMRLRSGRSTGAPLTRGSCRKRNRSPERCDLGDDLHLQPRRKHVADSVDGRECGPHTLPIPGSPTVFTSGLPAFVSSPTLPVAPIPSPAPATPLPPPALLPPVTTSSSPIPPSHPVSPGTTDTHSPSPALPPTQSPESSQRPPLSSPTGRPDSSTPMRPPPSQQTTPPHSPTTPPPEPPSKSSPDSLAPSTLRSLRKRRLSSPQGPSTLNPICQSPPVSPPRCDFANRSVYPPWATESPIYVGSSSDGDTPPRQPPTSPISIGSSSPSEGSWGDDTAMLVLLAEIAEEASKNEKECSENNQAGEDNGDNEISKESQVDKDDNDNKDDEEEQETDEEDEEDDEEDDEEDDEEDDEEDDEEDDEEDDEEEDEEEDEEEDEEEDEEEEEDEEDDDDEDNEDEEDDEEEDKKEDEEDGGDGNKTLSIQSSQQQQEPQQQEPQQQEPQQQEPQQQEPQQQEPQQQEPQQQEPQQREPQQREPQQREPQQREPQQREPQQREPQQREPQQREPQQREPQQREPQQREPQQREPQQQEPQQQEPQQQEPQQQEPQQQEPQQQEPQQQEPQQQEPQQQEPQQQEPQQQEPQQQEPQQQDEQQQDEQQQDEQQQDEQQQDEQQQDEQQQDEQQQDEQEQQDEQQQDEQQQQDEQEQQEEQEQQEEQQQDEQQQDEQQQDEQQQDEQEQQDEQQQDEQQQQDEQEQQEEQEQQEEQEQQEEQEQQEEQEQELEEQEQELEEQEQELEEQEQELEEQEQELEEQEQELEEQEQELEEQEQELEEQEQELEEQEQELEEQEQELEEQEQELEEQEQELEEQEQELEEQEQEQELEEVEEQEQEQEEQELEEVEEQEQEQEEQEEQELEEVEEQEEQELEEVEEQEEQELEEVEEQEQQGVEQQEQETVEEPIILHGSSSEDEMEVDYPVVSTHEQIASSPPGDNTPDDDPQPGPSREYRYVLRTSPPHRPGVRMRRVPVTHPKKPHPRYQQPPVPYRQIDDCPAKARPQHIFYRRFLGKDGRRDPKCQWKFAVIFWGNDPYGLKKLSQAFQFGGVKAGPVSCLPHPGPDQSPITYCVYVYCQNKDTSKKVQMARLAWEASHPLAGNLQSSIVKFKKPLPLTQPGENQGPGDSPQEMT
# Beta2AR agonist – human beta-2 adrenergic receptor agonism by FAP; P07550; Am2.2-beta2AR cells, FAP receptor internalization, flow cytometry; reference of the scale not given here; response, % (test concentration not listed); 340,000 tested, 0.43% active; AID 504454;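 active = response above a set limit, near 3 SD of response in nonfluorescent compounds, cut at about 42% in these data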;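 also: stock transfer was 100 nL into about 11 µL; a reference agonist was the positive control; negative values mostly stem from fluorescent compounds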
# An asterisk follows results filed as active; ? = inconclusive; / = not tested or not shown.
SMILES,Calb FLC,Bfl-1 A1 inh,T cruzi inh,Beta cell apopt,UCH37 inh,RanGTP-Imp inh,LANA-H2B inh,Beta2AR agonist
COc1ccc(CCNc2oc(COc3ccc(Br)cc3)nc2C#N)cc1OC,13,1.7,25,6,4.2,-0.3,-1.3,5
COC1=CC(=Cc2c(N)n3nc(CC(=O)N4CCOCC4)sc3nc2=O)C=C(OC)C1=O,24,0.4,-4,0,/,-6.4,-24,-508
Cc1nc2c(C(=O)N3CCOCC3)cnn2c(C)c1Cc1cccc(Cl)c1,-1,-0.1,-1,1,-74,-4.0,-4.1,/
O=C(NC1CCCCC1)C(c1ccncc1)N(Cc1ccc(F)cc1)C(=O)c1ccccn1 (stereo unspecified),8,-0.3,28,-1,3.5,1.8,-1.2,-8
COc1ccc(CC(=O)N2CC3(C)CC2CC(C)(C)C3)cc1OC (stereo unspecified),-5,1.0,9,9,1.3,-2.1,-1.9,-1
Cc1ccc(Cn2ccc(=O)c(Cc3c(Cl)cccc3Cl)c2C)cc1,1,0.5,11,-3,4.9,3.4,-7.6,3
c1ccc(CN(Cc2cccs2)C(c2cccs2)c2nnnn2C2CCCC2)cc1 (stereo unspecified),26,-0.2,1,13,-1.4,-1.0,2.1,0
O=C(Nc1ccc(Cl)cc1)N1CCc2[nH]c3ccccc3c2C1,3,1.6,-16,-6,1.7,29*,3.0,4
CCOC(=O)CSc1nc2sc(C)c(C)c2c(=O)n1N,29,0.2,-7,-1,-1.7,?,8.8,6
CN(C)S(=O)(=O)c1cccc(COC(=O)c2ccc(Cl)cc2O)c1,2,0.4,-8,-8,2.3,3.3,1.4,-4
CC(C)(C)OC(=O)N1CC(O)CC1C(=O)OCC(=O)c1ccccc1 (stereo unspecified),-4,-1.3,0,-3,0.3,-1.8,-0.4,-6
CC(=O)Nc1nccc(-c2cc(-c3ccccc3)no2)n1,-3,-1.7,-15,-5,-3.1,0.7,-2.2,/
Cc1cc(C)c(C#N)c(SCC(=O)Nc2nnc(-c3ccccc3)s2)n1,?,-0.3,55*,1,-0.3,1.8,0.8,-15
COc1cccc(NC(=O)C2CCCN2S(=O)(=O)c2ccc3c(c2)C(C)(C)C(=O)N3C)c1 (stereo unspecified),5,0.4,2,6,4.0,-2.0,-3.2,-3
O=C(C1CCC(=O)N1Cc1ccccc1Cl)N1CCN(c2ccc(F)cc2)CC1 (stereo unspecified),1,-0.4,-6,-5,-1.7,5.8,4.7,-3
O=C(c1cnccn1)N(Cc1ccco1)C1(C(=O)NC2CCCC2)CCCCC1,-5,-0.4,-3,3,2.5,-0.9,1.4,4
C=CCc1cc(Cl)ccc1OCCNCCOC,-25,0.3,10,-8,5.6,?,-3.2,9
O=C(Nc1cccc(Cl)c1)c1cnc[nH]1,-1,-6.1,-3,-5,2.6,-0.8,-0.8,-7
CCCCn1c(N)c(N(CCOC)C(=O)CSCc2ccccc2C)c(=O)[nH]c1=O,4,0.1,-9,-7,-0.3,-5.0,/,-5
COc1ccc2ccccc2c1/C=N\NC(=O)c1ccc(C)s1,7,-1.5,/,3,/,/,5.2,-9
C[N+](C)(C)CCN(Cc1ccc(Cl)cc1)c1ccccn1,1,-0.5,-23,0,-3.7,4.8,-0.5,-4
C/C(=N\Nc1ccc(Cl)c(C(=O)O)c1)c1cccc2ccccc12,10,-0.7,-7,-1,/,6.2,0.4,6
Cc1ccc(CNC(=O)C(=O)NCC(c2ccco2)N2CCOCC2)cc1 (stereo unspecified),-20,1.5,-3,-6,0.1,3.0,-0.4,27
COC(=O)C1=C(C)N(Cc2ccco2)C(=O)N[C@H]1c1ccccc1,0,0.6,-8,0,/,0.3,-3.9,/
CS(=O)(=O)N1N=C(c2ccco2)CC1c1ccc(Cl)cc1Cl (stereo unspecified),-16,0.6,3,0,0.1,-0.7,-6.2,-1
CC(=O)c1ccc(NC(=O)CNCc2cccs2)cc1,-9,1.7,7,6,1.4,3.4,0.0,17
Cc1ccc(C)c(NS(=O)(=O)c2cc(C(=O)Nc3cccc(N(C)S(C)(=O)=O)c3)ccc2C)c1,8,0.1,18,0,3.1,?,-1.2,7
CC(C)COC(=O)N1C[C@H](O)C[C@H]1C(=O)Nc1ccc(Cl)cc1,-18,0.0,-1,-5,2.4,1.6,-0.5,3
O=C(C1=C(O)/C(=C/c2ccc(O)cc2)CCC1)C(F)(F)F,1,0.7,/,-3,1.6,/,-6.2,-1
C[n+]1ccccc1N1CCN(c2ccccc2Cl)CC1,2,0.6,6,-5,4.3,-0.1,-0.3,4

# 3 compounds already listed, arranged by the number in LANA-H2B inh, smallest number first.
SMILES | UCH37 inh | RanGTP-Imp inh | LANA-H2B inh | Beta2AR agonist
CC(=O)Nc1nccc(-c2cc(-c3ccccc3)no2)n1 | -3.1 | 0.7 | -2.2 | /
O=C(NC1CCCCC1)C(c1ccncc1)N(Cc1ccc(F)cc1)C(=O)c1ccccn1 (stereo unspecified) | 3.5 | 1.8 | -1.2 | -8
CCOC(=O)CSc1nc2sc(C)c(C)c2c(=O)n1N | -1.7 | ? | 8.8 | 6

# Later entries.
SMILES,Calb FLC,Bfl-1 A1 inh,T cruzi inh,Beta cell apopt,UCH37 inh,RanGTP-Imp inh,LANA-H2B inh,Beta2AR agonist
COc1cc2c(cc1NC(=S)NC(=O)c1c(OC)cccc1OC)oc1ccccc12,/,2.3,35,-1,9.2,/,2.2,0
O=C(NNC(=O)c1sccc1-n1cccc1)c1ccc(F)cc1,-32,1.5,-2,-5,3.4,1.5,-5.5,-5
Cc1ccc(C(=O)CCC(=O)OCC(=O)N(CC(C)C)c2c(N)n(Cc3ccccc3)c(=O)[nH]c2=O)cc1,7,0.9,11,/,1.9,-1.5,2.9,2
c1ccc(Nc2nc(N3CCCC3)nc(N3CCCC3)n2)cc1,-8,0.4,5,3,1.3,-1.3,-2.8,1
CCC(=O)n1nc(-c2ccccc2)nc1N,-7,-0.4,1,-14,23*,2.0,-2.2,-1
C#CCOCCOCCOCCNc1nc(N2CCN(C(=O)CCCCCCCCCCNC(=O)[C@@H](CCC(=O)O)n3cc(CCCCCN)nn3)CC2)nc(N2CCN(C(=O)CCCCCCCCCCNC(=O)[C@H](CO)n3cc(CCCSC)nn3)CC2)n1,/,0.1,/,-1,2.3,/,2.7,13
CCCCC/C(=N\NC(=O)CCC(=O)NCc1ccccc1)c1ccccc1,10,0.7,-4,2,/,-1.3,4.3,-10
CC1CCN(C(=O)COC(=O)COc2ccccc2C#N)CC1,/,-0.2,/,-6,0.3,/,1.1,-1
COc1ccc(C(=O)/C=C(\N)C(F)(F)F)c(O)c1,-5,-0.6,-15,-2,6.2,-4.1,-2.7,-2
CN(C)S(=O)(=O)n1cc(/C=C(\NC(=O)c2ccccc2)C(=O)N2CCOCC2)c2ccccc21,3,0.0,-6,8,0.1,-5.5,-2.9,-11
CCOc1ccc(N2C(=O)CC(Sc3ccccc3C(=O)O)C2=O)c([N+](=O)[O-])c1 (stereo unspecified),1,0.3,-59,-7,4.7,/,-1.8,-2
O=C(O)CCCNC(=O)/C(=C\c1ccc(Cl)cc1)NC(=O)c1ccc(Br)cc1,57,-1.3,-17,-5,0.8,7.5,4.3,7
O=C(c1ccccc1)N1N=C(C(F)(F)F)CC1(O)c1ccccc1 (stereo unspecified),-8,0.1,-10,4,1.1,?,0.6,-8
CCCc1cc(=O)[nH]c(SCC(=O)N2CCC(C(=O)OCC)CC2)n1,1,-0.3,-2,-9,0.6,7.3,5.0,3
Cc1c(-n2c(SCC(=O)C(C)(C)C)nc3ccccc3c2=O)c(=O)n(-c2ccccc2)n1C,-5,0.1,-11,-2,0.4,-0.7,-1.7,-8
CCOc1ccccc1NC(C)C(=O)NC(=O)NC1CCCCC1 (stereo unspecified),/,0.4,/,2,1.2,/,5.1,-5
CCCC1=NN2C(=N)/C(=C\c3cc(C)n(-c4cccc(C)c4)c3C)C(=O)N=C2S1,-5,0.5,2,7,-114,1.8,-1.5,11
CCN1CCN(CC(=O)N2CCCC(C(=O)c3ccc(Oc4ccccc4)cc3)C2)CC1 (stereo unspecified),-20,-0.6,72*,3,1.7,-0.5,3.2,-20
COc1cc(C2c3[nH]c4ccccc4c3C[C@H]3C(=O)N(C4CC4)CC(=O)N23)ccc1OC(C)C (stereo partly specified),19,0.7,3,-12,5.1,5.9,-0.4,0
Cc1cc(C)c2nc(NC(=O)[C@@H](NC(=O)c3cccc(S(=O)(=O)N4CCOCC4)c3)C(C)C)sc2c1,3,0.3,24,6,1.6,-1.0,1.6,3
O=C(CN1CCN(S(=O)(=O)c2ccc(F)cc2)CC1)NC1CC1,3,2.4,2,/,0.1,1.3,0.2,-5
CCn1c(C)nc2cc(C(N)=O)ccc21,-2,1.0,-10,-2,4.2,0.8,6.2,7
C/C(=N\NC(=O)c1ccccc1O)c1ccc(NC(=O)c2ccccc2)cc1,-7,-0.8,/,2,/,/,-4.7,1
CC(C)c1ccc(OCC(O)Cn2cnc3ccccc32)cc1 (stereo unspecified),-2,0.4,1,3,-0.4,?,-0.8,0
CCOc1ccc(NC(=O)C2C3CCC4C(CCC32)C4(Cl)Cl)cc1 (stereo unspecified),-2,0.3,21,2,1.9,6.8,-1.3,2
O=C(Cn1c(SCC(=O)N2CCc3ccccc32)nc2ccccc21)NC1CCCC1,-1,0.3,3,1,1.8,2.0,-1.5,-6
COC(=O)C1C(=O)/C(=C(/C)N2CCCC2)C(=O)CC1(C)C (stereo unspecified),3,0.1,-9,-7,-1.0,-1.0,2.3,3
Cc1cc(C=NCCO)c(C)n1-c1cc(Cl)ccc1Cl,-5,-0.1,-11,1,2.2,2.2,13,-6
COCCNC(=O)c1ccc(-n2c(SCc3cccnc3)nc3ccccc3c2=O)cc1,8,-0.8,9,4,3.3,?,0.1,-6
CCOc1ccc(C)cc1S(=O)(=O)n1nc(C)cc1C,10,-0.1,-3,-12,4.4,-4.0,-8.1,1
O=C(CSc1nnc(-c2ccco2)n1Cc1ccccc1)NC(=O)NCc1ccccc1,43,-1.4,12,-1,5.0,6.9,-3.1,-4
O=C(NC1CCCCCC1)c1ccccc1-c1ccccc1,-3,0.6,9,-10,1.2,-0.9,-3.4,11
COc1ccc(Nc2nc3ccccc3n3nnnc23)cc1,32,-0.9,2,0,-112,5.6,-1.6,13
CN1CCc2c(sc3c2C(=O)NC(c2ccc(-c4ccc(Cl)cc4)o2)N3)C1 (stereo unspecified),-3,-0.8,8,-7,-5.5,90*,-26,-20
CC(C)NC(=O)c1onc(CSc2cccc(Cl)c2)c1C(=O)O,-14,-1.6,-13,1,5.0,-0.6,7.3,11

# 2 records picked at random from those above, as already listed:
SMILES,Calb FLC,Bfl-1 A1 inh,T cruzi inh,Beta cell apopt,UCH37 inh,RanGTP-Imp inh,LANA-H2B inh,Beta2AR agonist
COc1ccc(Nc2nc3ccccc3n3nnnc23)cc1,32,-0.9,2,0,-112,5.6,-1.6,13
O=C(NC1CCCCCC1)c1ccccc1-c1ccccc1,-3,0.6,9,-10,1.2,-0.9,-3.4,11
